Screening results (PubChem BioAssay)
DUX4 inh: blocks DUX4-driven transcriptional activation; 293T-iDUX4 ZSCAN4-Gaussia luciferase reporter, 24 h; hits give low values; activity change, negative = inhibition, % (no concentration beside the values); 37,000 tested, 0.8% active;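 active = -10% or lower and over 25 points stronger than a control reporter; inconclusive = -10% or lower with a smaller gap; inactive = above -10%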;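 note: 0% = median of neutral control wells and -100% = median of positive control wells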
DUX4 inh difference: second read-out of DUX4 inh, no call of its own (marks repeat the call); Gaussia minus Italica difference, %; measured here: selective DUX4 reporter inhibition;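 worked out from the two reporters; negative = selective loss of the DUX4 reporter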
DUX4 inh control: second read-out of DUX4 inh, no call of its own (marks repeat the call); activity change, negative = inhibition, %; measured here: Italica tet-on control reporter;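 0 = neutral control and -100 = positive control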
The depositor's hits bear a star; ? = inconclusive; / = no result given; & = joins results of further samples. Not all compounds are listed; rates above refer to the full screens.

Order of values – DUX4 inh	DUX4 inh difference	DUX4 inh control
> COCC(=O)Nc1ccc2c(c1)C(=O)N(C)C[C@@H](OC)[C@@H](C)CN(C(=O)c1ccncc1)[C@H](C)CO2
 : 1.5	-2.7	4.3
> O=C(C[C@H]1CC[C@H]2[C@@H](COC[C@@H](O)CN2C(=O)C2CCOCC2)O1)NCc1ccncc1
 : 3.4	0.7	2.7
> CN(C)CC#Cc1ccc([C@@H]2[C@@H](CO)N3C(=O)CN(C(=O)Cc4ccccc4)C[C@@H]23)cc1
 : 5.5	-4.5	10.0
> C[C@@H]1CN([C@@H](C)CO)C(=O)Cc2cc(NC(=O)CCCCCC(=O)Nc3ccccc3N)ccc2O[C@@H]1CN(C)Cc1ccc(C(F)(F)F)cc1
 : 4.8	2.1	2.7
> O=C1CNC[C@H]2[C@H](c3ccc(C4=CCCC4)cc3)[C@@H](CO)N12
 : 10.4	-0.7	11.1
> COc1cccc(S(=O)(=O)N(C)C[C@@H]2Oc3cc(C4=CCCCC4)ccc3S(=O)(=O)N([C@@H](C)CO)C[C@H]2C)c1
 : 0.6	-0.1	0.7
> O=C(Nc1ccc2c(c1)[C@H]1C[C@H](CC(=O)N3CCOCC3)O[C@@H](CO)[C@H]1O2)Nc1ccccc1F
 : 9.0	8.9	0.0
> COCC(=O)N(C[C@H]1N[C@H](CO)[C@H]1c1ccc(C2=CCCCC2)cc1)C(C)C
 : 2.1	-1.6	3.7
> O=C(C[C@@H]1C[C@@H]2c3cc(NS(=O)(=O)c4ccc(F)cc4)ccc3O[C@@H]2[C@@H](CO)O1)NCc1ccc(Cl)cc1
 : ?	/	/
> COCC(=O)Nc1ccc2c(c1)OC[C@H](C)N(Cc1ccncc1)C[C@@H](C)[C@@H](OC)CN(C)C2=O
 : -2.8	-4.8	2.0
> O=C(C1CCCCC1)N1C[C@H]2[C@@H](c3ccccc31)[C@H](CO)N2CC1CCOCC1
 : -4.7	-2.2	-2.5
> CNC[C@H]1Oc2ccc(NS(=O)(=O)c3ccc(OC)cc3)cc2C(=O)N([C@H](C)CO)C[C@H]1C
 : -0.8	-2.2	1.4
> O=C(C[C@@H]1C=C[C@H](NC(=O)c2cccc(F)c2)[C@@H](CO)O1)Nc1nccs1
 : 1.8	2.1	-0.3
> C/C=C/c1ccccc1[C@H]1[C@@H](CO)N(C(=O)NC2CCCCC2)[C@H]1C#N
 : ?	/	/
> C[C@@H]1CN([C@H](C)CO)C(=O)c2cc(/C=C/c3ccccc3)cnc2O[C@@H]1CN(C)C(=O)Cc1ccccn1
 : 4.0	6.3	-2.3
> CN1[C@H](C(=O)NCC(F)(F)F)[C@@H](CO)[C@@H]2Cn3c(ccc(-c4ccc(F)cc4)c3=O)[C@@H]21
 : -5.0	-3.6	-1.4
> CN1CCN(C(=O)C[C@@H]2C=C[C@H](NC(=O)Cc3ccccn3)[C@@H](CO)O2)CC1
 : 7.8	2.9	4.9
> O=C(C[C@H]1C[C@H]2c3cc(NC(=O)NC4CCCC4)ccc3O[C@H]2[C@@H](CO)O1)NCc1ccc2c(c1)OCO2
 : -2.7	0.4	-3.0
> C[C@H](CO)N1C[C@H](C)[C@@H](CN(C)S(=O)(=O)c2cccc(C#N)c2)OCc2ccccc2-c2c(n(C)c3ccccc23)C1=O
 : 9.1	1.9	7.3
> C[C@@H]1CN([C@@H](C)CO)C(=O)c2ccccc2-c2ccccc2CO[C@@H]1CN(C)S(=O)(=O)c1cccc(C#N)c1
 : 0.6	13.0	-12.3

2 neighbouring compounds from above, quoted:
Order of values – DUX4 inh	DUX4 inh difference	DUX4 inh control
> COCC(=O)Nc1ccc2c(c1)C(=O)N(C)C[C@@H](OC)[C@@H](C)CN(C(=O)c1ccncc1)[C@H](C)CO2
 : 1.5	-2.7	4.3
> O=C(C[C@H]1CC[C@H]2[C@@H](COC[C@@H](O)CN2C(=O)C2CCOCC2)O1)NCc1ccncc1
 : 3.4	0.7	2.7

(further entries)
Order of values – DUX4 inh	DUX4 inh difference	DUX4 inh control
> C[C@H](CO)N1C[C@H](C)[C@@H](CN(C)S(=O)(=O)c2ccccc2F)OCc2ccccc2-c2c(n(C)c3ccccc23)C1=O
 : 12.9	20.2	-7.3
> COc1ccccc1CN1[C@@H]2c3cccc(=O)n3C[C@H]1[C@H](CO)[C@H]2C(=O)N1CCc2ccccc2C1
 : 3.1	-2.3	5.4
> CN1c2ccc(Br)cc2[C@H]2[C@H](CCN2C(=O)c2cccc(F)c2)[C@H]1CO
 : -8.6	-6.6	-2.0
> CC(C)C#Cc1ccc2c(c1)O[C@@H](CN(C)C(=O)Nc1ccccc1)[C@H](C)CN([C@H](C)CO)S2(=O)=O
 : -6.1	1.5	-7.6
> COc1ccccc1C#Cc1ccc2c(c1)[C@@H]1[C@@H](CCN1C(=O)CN1CCOCC1)[C@@H](CO)N2
 : -9.9	-4.5	-5.4
> COCC(=O)N1[C@H](C#N)[C@@H](c2ccccc2-c2cccc(F)c2)[C@H]1CO
 : 16.8	5.6	11.1
> O=C([C@H]1[C@H](CO)[C@H]2Cn3c(ccc(-c4cccnc4)c3=O)[C@H]2N1CC1CC1)N1CCCCC1
 : 2.3	-2.3	4.6
> O=C(C[C@H]1C=C[C@H](NS(=O)(=O)c2ccc(F)cc2)[C@@H](CO)O1)N1CCc2ccccc2C1
 : -2.2	1.1	-3.3
> CN1C(=O)c2cc(NC(=O)c3ccc(Cl)cc3)ccc2OC[C@@H]2O[C@H](CC(=O)O)CC[C@H]21
 : -2.3	-5.2	2.9
> O=C(C[C@@H]1C[C@H]2c3cc(NC(=O)Nc4ccccc4F)ccc3O[C@H]2[C@H](CO)O1)NCc1cc(F)ccc1F
 : -52.4*	-27.1*	-25.3*
> C[C@H](NC(=O)C[C@@H]1C=C[C@@H](NS(=O)(=O)c2cccc(F)c2)[C@H](CO)O1)c1ccccc1
 : 3.2	-3.6	6.8
> O=C(c1ccccn1)N1C[C@@H]2[C@H](c3ccccc31)[C@H](CO)N2C(=O)C1CCCCC1
 : 3.8	0.2	3.6
> COC(=O)C[C@@H]1CC[C@@H]2[C@H](COc3ccc(NC(=O)c4cnccn4)cc3C(=O)N2C)O1
 : -1.5	-0.3	-1.2
> C[C@@H]1CN([C@H](C)CO)C(=O)c2c(c3ccccc3n2C)-c2ccccc2CO[C@@H]1CN(C)Cc1cccc2c1OCCCO2
 : -6.4	-4.2	-2.2
> CCN1[C@H](C(=O)N2CCc3ccccc3C2)[C@@H](CO)[C@@H]2Cn3c(cccc3=O)[C@@H]21
 : -6.7	-5.4	-1.3
> COCC(=O)N(C)C[C@H]1Oc2cc(-c3ccc(OC)cc3)ccc2S(=O)(=O)N([C@@H](C)CO)C[C@H]1C
 : -0.7	-1.6	0.9
> CO[C@H]1CC[C@H]2CCOc3ccc(C#N)cc3C(=O)N(C)C[C@H](C)C(=O)N(C)C[C@H]1O2
 : -1.5	0.2	-1.7
> COc1ccc2c3c([nH]c2c1)[C@@H](CO)N(C(=O)NC(C)C)CC31CN(C(=O)NC2CCCC2)C1
 : 1.6	-0.1	1.7
> CNC(=O)C[C@H]1CC[C@@H]2[C@H](COc3ccc(NC(=O)c4ccccc4OC)cc3C(=O)N2C)O1
 : 0.7	-1.6	2.3
> COc1ccc(C#Cc2ccc([C@@H]3[C@H](CO)N4CCCCN(C(=O)Nc5ccccc5)C[C@@H]34)cc2)cc1
 : ?	/	/
> CCCC#Cc1ccc([C@H]2[C@@H](CO)N(C(=O)NC(C)C)[C@@H]2CNC(C)=O)cc1
 : -0.5	-1.5	1.0
> C[C@@H]1CN([C@@H](C)CO)S(=O)(=O)c2ccc(-c3ccc(C(=O)N(C)C)cc3)cc2O[C@H]1CN(C)C(=O)Cc1ccccn1
 : -2.4	-1.0	-1.4
> O=C(NC1CCC1)[C@H]1[C@H](CO)[C@H]2Cn3c(ccc(/C=C/c4ccccc4)c3=O)[C@H]2N1Cc1cncnc1
 : 0.3	12.1	-11.7
> O=C(C[C@H]1C[C@H]2c3cc(NC(=O)Cc4ccncc4)ccc3O[C@H]2[C@@H](CO)O1)NCc1cc(F)ccc1F
 : -21.3*	-27.3*	5.9*
> CC(C)C(=O)Nc1ccc2c(c1)C(=O)N(C)[C@H]1CC[C@H](CC(=O)Nc3cccc(F)c3)O[C@@H]1CO2
 : 1.2	0.6	0.6
> CO[C@@H]1CN(C)C(=O)c2cc(NC(=O)Cc3ccccc3)ccc2OC[C@H](C)N(C)C[C@H]1C
 : -1.5	0.4	-1.9
> CCNC(=O)[C@H]1[C@H](CO)[C@H]2Cn3c(ccc(C4=CCCCC4)c3=O)[C@H]2N1Cc1ccc2c(c1)OCO2
 : -2.7	-6.8	4.1
> COc1cccc(-c2ccc(C3[C@H]4CNC[C@@H]3N4S(=O)(=O)c3cn(C)cn3)cc2)c1 (stereo partly drawn)
 : 13.6&11.9	6.8&-10.7	6.8&22.6
> O=C(C[C@@H]1CC[C@@H](NC(=O)C2CCOCC2)[C@H](CO)O1)NCc1ccccc1Cl
 : -2.5	-0.5	-2.0
> O=C(C[C@@H]1CC[C@H]2[C@@H](COC[C@H](O)CN2Cc2ccncc2)O1)NCc1ccccc1Cl
 : 5.6	4.9	0.6
> O=C(C[C@@H]1CC[C@@H]2[C@H](COC[C@@H](O)CN2C(=O)c2ccc3c(c2)OCO3)O1)NC1CCC1
 : -0.8	-6.3	5.5
> CC(C)NC(=O)N(C)C[C@@H]1Oc2ccc(NC(=O)Nc3ccc4c(c3)OCO4)cc2CC(=O)N([C@H](C)CO)C[C@@H]1C
 : 2.5	0.3	2.2
> COc1cc(CN2CC3(CCN(C(=O)NC(C)C)CC3)c3c(n(C)c4cc(OC)ccc34)[C@H]2CO)cc(OC)c1
 : 1.0	-4.0	5.0
> COc1ccccc1C(=O)Nc1ccc2c(c1)OC[C@@H](C)NC[C@H](C)[C@H](OC)CN(C)C2=O
 : 1.5	1.2	0.3
> CCCC#Cc1ccc([C@@H]2[C@@H](CO)N3CCCCN(CC4CCOCC4)C[C@H]23)cc1
 : 0.9	-2.2	3.1
> O=C(Nc1cc(F)ccc1F)N1CCCCN2[C@H](CO)[C@H](c3ccc(C4=CCCCC4)cc3)[C@H]2C1
 : ?	/	/
> C[C@@H]1CN([C@@H](C)CO)C(=O)c2ccccc2-c2ccccc2CO[C@@H]1CN(C)Cc1ccc(Oc2ccccc2)cc1
 : ?	/	/
> O=C(c1cccc(F)c1)N1C[C@H]2[C@@H](c3ccccc31)[C@@H](CO)N2C(=O)C1CCCCC1
 : -1.9	-1.5	-0.5
> COc1ccccc1-c1ccc2c(c1)[C@@H]1[C@@H](CCN1S(=O)(=O)c1ccccc1F)[C@H](CO)N2
 : ?	/	/
> Cc1ccc(S(=O)(=O)N2C[C@@H](O)COC[C@H]3O[C@H](CC(=O)NCc4ccc(Cl)c(Cl)c4)CC[C@@H]32)cc1
 : ?	/	/
> COc1ccc2c3c([nH]c2c1)[C@@H](CO)N(C(C)=O)CC31CN(S(=O)(=O)c2cccs2)C1
 : 18.9	13.8	5.1
> COc1ccc(NC(=O)N(C)C[C@H]2OCc3ccccc3-c3ccccc3C(=O)N([C@@H](C)CO)C[C@@H]2C)c(OC)c1
 : 8.6	-7.2	15.8
> COCCNC(=O)C[C@@H]1CC[C@@H]2[C@H](COc3ccc(NC(=O)Cc4ccccc4)cc3C(=O)N2C)O1
 : -1.4	-3.1	1.7
> O=C(C[C@@H]1CC[C@H]2[C@@H](COC[C@H](O)CN2S(=O)(=O)c2cccc(Cl)c2)O1)Nc1ccc(-c2ccccc2)cc1
 : ?	/	/
> CCC(=O)N1CC[C@@H]2[C@H]1c1cc(C#Cc3cccnc3)ccc1N[C@@H]2CO
 : -4.7	-9.0	4.3
> CCC(=O)Nc1ccc2c(c1)C(=O)N(C)C[C@@H](OC)[C@@H](C)CN(Cc1nccs1)[C@@H](C)CO2
 : 5.9	-3.2	9.1
> COc1cccc(C#Cc2ccc([C@@H]3[C@H](CO)N4C(=O)CN(C(=O)c5ccccc5)C[C@@H]34)cc2)c1
 : ?	/	/
> CO[C@@H](CN(C)Cc1ccc2c(c1)OCO2)[C@@H](C)CN(C(=O)c1ccccc1)[C@@H](C)CO
 : 3.2	-1.1	4.3
> COc1ccc2c3c([nH]c2c1)[C@H](CO)N(C(=O)c1ccncc1)CC31CCN(C(=O)NC(C)C)CC1
 : 10.3	12.0	-1.7
> COc1ccc(S(=O)(=O)N2C[C@H](O)COC[C@@H]3O[C@@H](CC(=O)NCCN4CCCCC4)CC[C@H]32)cc1
 : 7.7	4.5	3.2
> C[C@@H]1CN([C@@H](C)CO)C(=O)Cc2cc(N(C)C)ccc2O[C@@H]1CN(C)C(=O)NC1CCCCC1
 : -1.2	-0.4	-0.8
> C[C@H]1CN([C@@H](C)CO)C(=O)c2cccc(NC(=O)CCCCCC(=O)Nc3ccccc3N)c2O[C@@H]1CN(C)S(=O)(=O)c1cn(C)cn1
 : -4.8	-3.7	-1.1
> C[C@@H]1CN([C@H](C)CO)C(=O)c2cccc(NC(=O)c3cnccn3)c2O[C@H]1CN(C)C(=O)NC1CCCCC1
 : -3.3	-5.8	2.5
> C[C@@H]1CCCCO[C@@H](CN(C)Cc2ccc(C(=O)Nc3ccccc3N)cc2)[C@@H](C)CN([C@H](C)CO)C(=O)c2cc(NS(=O)(=O)c3cn(C)cn3)ccc2O1
 : 1.8	-2.5	4.3
> C[C@@H]1CCCCO[C@H](CN(C)Cc2ccc(C(F)(F)F)cc2)[C@@H](C)CN([C@@H](C)CO)C(=O)c2cc(NC(=O)CCCN(C)C)ccc2O1
 : 1.8	-1.1	2.9
> C[C@H]1CN([C@@H](C)CO)C(=O)c2c(c3ccccc3n2C)-c2ccccc2CO[C@@H]1CN(C)C(=O)Nc1ccccc1C(F)(F)F
 : ?	/	/
> OC[C@@H]1[C@H](c2ccc(-c3ccccc3F)cc2)[C@H]2CN(Cc3ccncc3)CCCCN12
 : ?	/	/
